Compound activity (PubChem)
TROY NFkB inh – inhibitors of TROY-dependent NF-kB signaling. Q293 LMP1-TROYcd NF-kB luciferase reporter, 4 h. inhibition, % at 10 µM. hit rate 0.98% among 360,000;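 active = compounds whose plate-normalised and pattern-corrected inhibition of the luciferase reporter signal at the single screening dose is 50% or more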
TRAIL sens C8 – caspase-8 TRAIL sensitization; NB7+C8 cells + TRAIL, ATPlite viability luminescence; inhibition (viability loss, TRAIL sensitization), % at 10 µM; hit rate 1% among 360,000; AID 624354;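 active = compounds causing at least 50% loss of cell viability in the single-dose screen, relative to plate controls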
* = called active by the depositor. This is a subset, and most or all hits are left out here.

Structure,TROY NFkB inh,TRAIL sens C8
Cc1ccc(/C=C/C(=O)c2ccccc2)cc1,-78,-9
COc1ccc(Cn2cc(C(=O)O)c(=O)c3ccccc32)cc1,-5,0
CCCCNc1ccc(C(=O)O)cc1,-16,-1
CN(C)CCCN1c2ccccc2CCc2ccccc21,-7,3
O=C(O)C1CCN(S(=O)(=O)/C=C/c2ccccc2)CC1,8,-15
CN1[C@@H]2CC[C@H]1CC(OC(=O)[C@H](CO)c1ccccc1)C2 (some centres undefined),10,-4
CN1CCc2cccc3c2C1Cc1ccc(O)c(O)c1-3 (centres undefined),-11,-8
C[C@H](CS)C(=O)N1CCC[C@H]1C(=O)O,16,-12
CN1[C@@H]2CC[C@H]1CC(OC(=O)C(CO)c1ccccc1)C2 (some centres undefined),-2,-12
NCCCC(=O)O,-6,5

Reformatted: 2 of the compounds above
CN1[C@@H]2CC[C@H]1CC(OC(=O)[C@H](CO)c1ccccc1)C2 (some centres undefined)
  TROY NFkB inh = 10	TRAIL sens C8 = -4

CN1[C@@H]2CC[C@H]1CC(OC(=O)C(CO)c1ccccc1)C2 (some centres undefined)
  TROY NFkB inh = -2	TRAIL sens C8 = -12

A few values from the list:
`O=C(O)C1CCN(S(=O)(=O)/C=C/c2ccccc2)CC1` | TRAIL sens C8 = -15
`CN(C)CCCN1c2ccccc2CCc2ccccc21` | TRAIL sens C8 = 3
